# miR-21 FLuc: miR-21 reporter, rising signal; HeLa miR-21 FLuc reporter, luciferase, 48 h; Potency, µM (doses to about 38.3 µM), without a hit: top-dose reporter change, positive = more light; 340,000 tested, under 10 active; AID 2288; active = well fitted rising curve with a large enough effect; inconclusive = small, poorly fitted or top-dose-only effect; inactive = no such curve, though single readings can be large or run the other way;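 also: % of control where 0% means no effect; miR-21 action dims this reporter so a rising signal means less miR-21 action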
#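 Luminescence from a firefly luciferase reporter carrying a miR-21 binding site downstream, stably expressed under a CMV promoter in HeLa cells that make miR-21 endogenously, reports miRNA modulation after 48 h compound exposure up to approximately 40uM final.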
# Starred values were filed as active, the others as inactive; ? = inconclusive. An excerpt (hit frequency here may not be typical).
# The first 6 records, to show the layout:
entry	structure	miR-21 FLuc
1	Cc1ccc(OCC(=O)Nc2sc3c(c2C(N)=O)CCCC3)c(C(C)(C)C)c1	-0.3%
2	COc1ccc(C(CC(=O)Nc2cc(Cl)c(OC)cc2OC)N2Cc3ccccc3C2=O)cc1 (centres undefined)	14.8%
3	CC(C)c1ccc(CNCCSc2nnnn2-c2ccccc2)cc1	11.1%
4	CCOC(=O)c1[nH]c2ccccc2c1NC(=O)c1ccc(C)c(C)c1	-21.9%
5	COCC(=O)Nc1cccc(-c2nc3cccnc3s2)c1	-5.8%
6	Cc1cc(C)c(NC(=O)C2CCCN(C(=O)c3cnn(-c4ccccc4)c3-n3cccc3)C2)c(C)c1 (centres undefined)	14.0%

# All compounds of this part (from the top)
entry	structure	miR-21 FLuc
1	Cc1ccc(OCC(=O)Nc2sc3c(c2C(N)=O)CCCC3)c(C(C)(C)C)c1	-0.3%
2	COc1ccc(C(CC(=O)Nc2cc(Cl)c(OC)cc2OC)N2Cc3ccccc3C2=O)cc1 (centres undefined)	14.8%
3	CC(C)c1ccc(CNCCSc2nnnn2-c2ccccc2)cc1	11.1%
4	CCOC(=O)c1[nH]c2ccccc2c1NC(=O)c1ccc(C)c(C)c1	-21.9%
5	COCC(=O)Nc1cccc(-c2nc3cccnc3s2)c1	-5.8%
6	Cc1cc(C)c(NC(=O)C2CCCN(C(=O)c3cnn(-c4ccccc4)c3-n3cccc3)C2)c(C)c1 (centres undefined)	14.0%
7	Cc1ccc(CNC(=O)C2CCN(S(=O)(=O)c3cn(C)cn3)CC2)cc1	1.3%
8	CCOc1ccc(S(=O)(=O)NCC(c2ccc(N(C)C)cc2)N2CCCC2)cc1 (centres undefined)	-7.5%
9	COc1ccc(-c2cn3nc(N4CCC(C(=O)Nc5ccc(C)cc5)CC4)sc3n2)cc1	-7.3%
10	Cc1ccc2oc(=O)n(CCNC(=O)Nc3ccc(Cl)cc3)c2c1	5.6%
11	COc1ccc2c(c1)c1c(c(=O)n(-c3ccc(F)c(Cl)c3)c(=O)n1CC(=O)N1CCCC1)n2C	-1.3%
12	CC(C)NC(=O)CCC(=O)N1Cc2ccccc2Oc2ncccc21	-5.4%
13	CC1CCCCN1C(=O)CSc1n[nH]c(-c2ccccc2)n1 (centres undefined)	-36.2%
14	CCOc1ccccc1C(=O)Nc1ccc(-n2nncc2-c2ccccc2)cc1	-0.2%
15	CS(=O)(=O)c1ncc(N(Cc2ccco2)Cc2cccs2)c(C(=O)Nc2ccccc2F)n1	8.8%

# Going on with the list:
entry	structure	miR-21 FLuc
16	O=C(COc1cccc(Cl)c1)N1CCC(c2nc3ccccc3o2)CC1	-3.4%
17	COC(=O)CCCCCn1c(-c2ccccc2)cn2c3c(=O)n(C)c(=O)n(C)c3nc12	-8.6%
18	CN(C)c1ccc(NC(=O)CSC2=Nc3ccccc3C3=NC(CCC(=O)NCc4cccs4)C(=O)N23)cc1 (centres undefined)	-10.4%
19	Cc1cccc(C)c1Nc1sc(C(=O)c2ccccc2)c(N)c1S(=O)(=O)c1ccccc1	?
20	Cc1ccc(Cl)cc1N1CCN(C(=O)c2ccc3nc(N4CCC(C)CC4)sc3c2)CC1	-15.0%
21	COc1ccccc1NC(=O)c1ccc2c(Cl)c3c(nc2c1)CCCC3	-44.7%
22	CC1CN(C(=O)CCC(=O)NCc2cccs2)c2cc(Cl)ccc2O1 (centres undefined)	-5.7%
23	Cc1ccc(Cc2c(C)nc3nc(SCC(=O)NCCC(C)C)nn3c2C)cc1	-2.0%
24	Cc1cccc(NC(=O)C2CCC(CNS(=O)(=O)c3ccc(Br)s3)CC2)c1 (centres undefined)	7.1%
25	CCOC(=O)c1cc2c(=O)n3ccccc3nc2n(CC2CCCO2)c1=NC(=O)c1ccc(OC)cc1OC (centres undefined)	11.3%
26	COc1ccc(CNC(=O)Cc2c(C)c3c(O)cc(C)cc3oc2=O)cc1	-0.4%
27	CN1CCN(c2nc3c(S(=O)(=O)c4ccccc4)nnn3c3ccsc23)CC1	-1.9%
28	COc1ccc(-c2nc3n(n2)C(c2ccccc2OC)C(C(=O)Nc2cccnc2)=C(C)N3)cc1 (centres undefined)	0.3%
29	CC1(C(=O)Nc2ncc(Cc3ccc(Br)cc3)s2)Cc2ccccc2C(=O)O1 (centres undefined)	23.0%
30	COCCNC(=O)c1ccc(Cn2c(SCC(N)=O)nc3ccccc3c2=O)cc1	-6.5%

# More structures follow:
entry	structure	miR-21 FLuc
31	CCc1nn(CC(=O)NCc2ccc(OC)c(OC)c2)c(=O)c2cc3sc(C)cc3n12	-3.1%
32	Cc1ccc(S(=O)(=O)c2nc(-c3ccc(Cl)cc3)oc2N2CCCCCC2)cc1	0.8%
33	COc1cc(C)c(S(=O)(=O)Nc2cccc(-c3ccc(N4CCCC4)nn3)c2)cc1C	-5.4%
34	O=C(NC1CC(=O)N(c2cccc(F)c2)C1)c1ccc(S(=O)(=O)N2CCCCC2)cc1 (centres undefined)	-0.4%
35	O=C(NCCc1ccccc1)C1CCN(Cc2cc3ccccc3n2Cc2cccc(Cl)c2)CC1	24.2%
36	Cc1cc(C)cc(Nc2cc(C)nc3nc(-c4ccco4)nn23)c1	29.5%
37	Cc1ccc(Cl)cc1NC(=O)C1CCN(C(=O)c2cnn(-c3ccccc3)c2-n2cccc2)CC1	13.1%
38	Cc1cc(-c2ccc(C)c(S(=O)(=O)N(C(C)C)C3CCCCC3)c2)on1	15.4%
39	COc1cccc2sc(N(Cc3cccnc3)C(=O)C3CCCCC3)nc12	?
40	CN(C)CCN(Cc1ccccc1)S(=O)(=O)c1ccc2[nH]c(=O)ccc2c1	-10.3%
41	Cc1ccc(N2CCN(C(=O)NCc3noc4ccc(C)cc34)CC2)c(C)c1	-7.9%
42	O=C(NCCc1ccccc1)C(=O)Nc1cccc(Br)c1	-18.9%
43	Cc1oc2ccc(O)c(CN3CCCC3)c2c1C(=O)Nc1ccc(C(C)C)cc1	-8.3%
44	CC(C)(C)c1ccc(C(=O)Nc2onc3c2CCCC3)cc1	15.7%
45	Cc1ccc(Cl)cc1N1CCN(C(=O)CCNS(=O)(=O)c2ccc3c(c2)CCN3C(=O)C2CC2)CC1	5.9%

# Other results.
entry	structure	miR-21 FLuc
46	Cc1nc(-c2ccc(F)cc2)sc1CCNC(=O)c1ccc(C(C)(C)C)cc1	?
47	CN(C)c1ccc(C(CNC(=O)c2c(F)cccc2Cl)N2CCOCC2)cc1 (centres undefined)	-9.7%
48	CCOc1ccccc1NC(=O)c1c(NC(=O)c2ccncc2)sc2c1CCC(C(C)(C)C)C2 (centres undefined)	-2.9%
49	COc1ccc(CNC(=O)c2cc3cc4ccc(C)cc4nc3o2)cc1	-14.1%
50	O=C(NCc1cccs1)c1ccc(Cn2c(SCc3ccccc3)nc3cccnc32)cc1	-0.7%
51	COC(=O)c1scc(-c2ccc(C)cc2)c1S(=O)(=O)N1CCN(c2ccc(F)cc2)CC1	9.2%
52	COc1cc(Cl)c(C)cc1NC(=O)Cn1ncc2c(=O)oc3ccccc3c21	-2.0%
53	Cc1c(C(=O)NCc2cccc(Br)c2)oc2ccc3c(c12)C(=O)CC(C)(C)O3	-3.0%
54	COc1cccc(CNC(=O)c2ccc(CS(=O)Cc3ccc(Cl)cc3)o2)c1 (centres undefined)	27.7%
55	CCCCCN1C(C(=O)c2ccccc2)=C(NC(=O)c2ccc(OC)cc2)c2ccccc2S1(=O)=O	-2.5%
56	COc1ccc(NC(=O)C(C)n2c(C)c3cnn(-c4ccccc4)c(=O)c3c2C)cc1Cl (centres undefined)	-14.8%
57	Cc1cc(C)cc(NC(=O)Nc2c[nH]c(=O)[nH]c2=O)c1	-0.9%
58	COc1ccc(Nc2cc(C)c3cc(NC(=O)Cc4c(F)cccc4Cl)ccc3n2)cc1	19.9%
59	CCOc1ccc(C(=O)Nc2ccc(-c3nnc4n3CCCCC4)cc2)cc1OCC	-2.6%
60	Cc1ccc(CNS(=O)(=O)c2ccc(-c3cc(C(F)(F)F)on3)s2)cc1	1.4%

# Further compounds follow:
entry	structure	miR-21 FLuc
61	Cc1cc(=O)[nH]c2nnc(SCC(=O)Nc3cc(C(F)(F)F)ccc3Cl)n12	-13.9%
62	O=C(CSc1nc(=O)[nH]c2c1CCCC2)NCc1ccc(Cl)cc1	10.1%
63	CCCCOC(=O)c1ccc(NC(=O)c2ccc3c(c2)CCN3S(C)(=O)=O)cc1	-0.4%
64	COC(=O)C1=C(c2ccccc2)c2ccccc2S(=O)(=O)N1CC(=O)Nc1ccc(OC)cc1OC	11.8%
65	CCCNC(=O)CSc1nc2ccccc2nc1Cc1ccc(Cl)cc1	0.2%
66	COC(=O)c1sccc1S(=O)(=O)N(CC(=O)Nc1ccc(C)c(F)c1)c1ccc(C)c(C)c1	17.7%
67	CCOC(=O)c1c(C)oc2nc(C)nc(NCC3CCN(Cc4cccc(C)c4)CC3)c12	-5.4%
68	COc1ccc(C)cc1NC(=O)c1oc2ccc(S(=O)(=O)N(C)C3CCCCC3)cc2c1C	1.0%
69	CCOc1ccccc1NC(=O)Cn1nc2c3cc(F)ccc3n(Cc3cccc(C)c3)cc-2c1=O	-9.4%
70	Cc1ccccc1Cn1c(CN2CCC(C(=O)NCc3ccc(Cl)cc3)CC2)cc2ccccc21	4.2%
71	CCOC(=O)c1ccc(NC(=O)CCCn2nc(C)c3sc4ccccc4c3c2=O)cc1	-2.9%
72	COc1ccc(OC)c(NC(=O)Cn2cnc3onc(-c4ccc(Cl)cc4)c3c2=O)c1	9.2%
73	Cc1cc(C)n(-c2nc3ccccc3nc2Nc2ccc(Cl)c(Cl)c2)n1	-1.2%
74	Cn1cnc(S(=O)(=O)N2CCC(C(=O)Nc3ccc(Cl)c(C(F)(F)F)c3)CC2)c1	16.3%
75	CC(CNC(=O)c1ccc(Cn2c(=O)c3cccn3c3cccnc32)cc1)c1ccccc1 (centres undefined)	4.4%

# Later entries.
entry	structure	miR-21 FLuc
76	Cc1cccc2c(=O)cc(CSc3ccccc3NC(=O)c3cccc(F)c3)[nH]c12	-2.1%
77	COc1cccc(C(=O)N2c3cc(C)ccc3C(C)(c3ccccc3)CC2(C)C)c1 (centres undefined)	?
78	COCCNC(=O)CCN1C(=O)c2cccnc2Oc2ccc(C)cc21	-1.2%
79	CCOC(=O)c1ccc(NC(=O)COC(=O)c2cn(CC)c3nc(C)ccc3c2=O)cc1	-0.9%
80	COC(=O)C(CCSC)NC(=O)c1c(C)oc2ncn(CC(C)C)c(=O)c12 (centres undefined)	-21.4%
81	COc1ccc(OC)c(NC(=O)c2c(NCc3sccc3C)sc3c2CCCCC3)c1	-8.6%
82	COc1ccc(NC(=O)CCc2nnc3n(Cc4ccccc4Cl)c(=O)c4ccccc4n23)cc1	-1.9%
83	Cc1ccc(NC(=O)c2ccc(-c3ccccc3)s2)cc1	-59.5%
84	COc1cccc(C2CC(=O)Nc3c2c(=O)n(C)c2nc4ccccc4n32)c1OC (centres undefined)	4.3%
85	Cc1ccc(-n2c(=O)c3c(c4cc(C)ccc4n3C)n(CC(=O)NCCC3=CCCCC3)c2=O)cc1	-0.1%
86	CC1CCCCN1c1cc2c(cc1F)c(=O)c(S(=O)(=O)c1ccccc1)cn2Cc1ccccc1 (centres undefined)	-0.2%
87	COc1ccc(-c2nc3n(n2)C(c2ccc(O)cc2)C(C(=O)Nc2cccnc2)=C(C)N3)cc1OC (centres undefined)	-5.9%
88	Cc1cccc(C)c1NC(=O)c1csc2c1CCCC2	26.4%
89	Cc1cc(C)c2c(-n3cccc3)c(C(=O)NCCc3ccc(Cl)cc3)sc2n1	-7.3%
90	Cc1ccc(CNC(=O)C2CCN(S(=O)(=O)c3cc(-c4noc(C)n4)ccc3C)CC2)cc1	25.5%

# The results go on:
entry	structure	miR-21 FLuc
91	CCOc1ccccc1Nc1nc2ccccc2nc1NS(=O)(=O)c1ccc(Cl)cc1	-1.3%
92	CCOc1ccc2nc(N3CCCC(C(=O)Nc4cc(C)ccc4C)C3)sc2c1 (centres undefined)	-32.8%
93	COc1ccc(Cn2c(C(=O)O)c(CNC3CCCCCC3)c3ccc(OC)cc32)cc1	?
94	O=C1CN(C(=O)Nc2ccccc2Cl)C(c2ccccc2)c2c(sc3c2CCCC3)N1 (centres undefined)	16.8%
95	CCCn1c2ccccc2c2cnn(CC(=O)N(C)c3ccc(F)cc3)c(=O)c21	-4.9%
96	COC(=O)c1c(SCC(=O)Nc2cccc(C(F)(F)F)c2)[nH]c2ccccc2c1=O	22.8%
97	Cc1ccc2c(c1)C(=O)OC(C(=O)Nc1ccc(C(=O)O)cc1)C2 (centres undefined)	-3.4%
98	COc1ccc2c(Sc3ccccc3)c(C(=O)NCCN(C)C)[nH]c2c1	-34.9%
99	Cc1ccc(NC(=O)CCSc2nc(-c3ccc4c(c3)OCO4)cc(C(F)(F)F)n2)cc1	-8.3%
100	Cc1cccc(C)c1-n1ncc(C(=O)N2CCN(c3ccccc3)CC2)c1C1CCN(C(=O)OC(C)(C)C)CC1	24.6%
101	O=C(Nc1cccc(C(F)(F)F)c1)c1cc2nc(-c3ccco3)cc(C(F)(F)Cl)n2n1	0.5%
102	Cc1cc(C)cc(NC(=O)N2CCC(C(N)=O)(N3CCCCC3)CC2)c1	-6.1%
103	Cc1cc(=O)n(CC(=O)N2CCN(c3ccc(F)cc3)CC2)c2c1c(C)nn2C	29.3%
104	COc1cccc(NC(=O)Cn2c(=O)n(CCCCC(=O)NCc3ccc4c(c3)OCO4)c(=O)c3ccccc32)c1	-17.2%
105	CCc1ccc(CNC(=O)CCn2c(=O)c3cccn3c3ccc(F)cc32)cc1	-7.2%

# Going on with the list:
entry	structure	miR-21 FLuc
106	Cc1cccc(S(=O)(=O)c2cn(C)c3cc(N4CCCCCC4)c(F)cc3c2=O)c1	-0.4%
107	CCn1c(-c2ccc(S(=O)(=O)N3CCOCC3)cc2)csc1=Nc1ccc(C)c(Cl)c1	-0.1%
108	COc1ccc(OC)c(NC(=O)CSC2=Nc3ccccc3C3=NC(CCC(=O)NC4CCCCC4)C(=O)N23)c1 (centres undefined)	-0.8%
109	Cc1ccc(-n2c(=O)c3cccnc3n2CC(=O)Nc2ccc(Br)cc2)cc1C	-19.8%
110	CC(C)Cn1c(=O)c2ccccc2n2c(CCC(=O)N3CCN(c4cccc(Cl)c4)CC3)nnc12	27.4%
